Sfp inh: qHTS Assay for Inhibitors of Bacillus subtilis Sfp phosphopantetheinyl transferase (PPTase); 4'-phosphopantetheinyl transferase ffp (Bacillus subtilis), Q9F4F7; Biochemical Sfp PPTase activity, qHTS; Potency, µM, inactives show max response, negative = inhibition, most hits filed as inhibitors; 3.5% of 310,000 active; active means well fitted inhibition curve with a large enough effect; inconclusive means small, poorly fitted or top-dose-only effect, or another doubt; inactive means no such curve, though single readings can be large or run the other way;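 further: the enzyme is Sfp with the accession as filed and its product quenches rhodamine fluorescence; potency means the concentration at half of the fitted maximal effect; 0% = enzyme reaction without inhibitor and -100% = no enzyme wells; top concentration of the series not given in the record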
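Compounds were incubated with enzyme (final 15 nM) for 15 min at room temperature before substrate addition started the reaction. Fluorescence at 525 nm excitation, 598 nm emission was recorded immediately and after 30 minutes.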
ClpP mod: qHTS Assay for Activators of ClpP; ATP-dependent Clp protease proteolytic subunit (Bacillus subtilis (strain 168)), P80244; Potency, µM (highest dose often 57.5 µM), without a hit: top-dose activity change, negative = active; 1.9% of 340,000 active; purified B. subtilis ClpP, FRET peptide cleavage, 20 min; active = well fitted falling curve with a large enough effect; inconclusive = small, poorly fitted or top-dose-only effect; inactive = no such curve, though single readings can be large or run the other way; further: potency means the concentration at half of the fitted maximal effect; the source files actives as falling curves though it sought activators and does not explain the sign; nearly all actives have a fitted effect of over 65% in size; many hits overshoot -100%
Target sequence (P80244 whole entry, looked up): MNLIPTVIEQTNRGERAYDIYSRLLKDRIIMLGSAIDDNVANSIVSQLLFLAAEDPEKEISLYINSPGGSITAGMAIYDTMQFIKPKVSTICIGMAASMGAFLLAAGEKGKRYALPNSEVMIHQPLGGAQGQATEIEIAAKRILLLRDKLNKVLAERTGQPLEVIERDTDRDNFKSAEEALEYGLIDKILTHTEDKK
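ClpP 10 microg/mL final, pH 8 Tris/KCl buffer with BSA, glycerol, Tween-20; compound pinned in; FRET-FV substrate; RT 20 min; Ex320/Em430; ΔFRET vs ADEP 5.8 microM, DMSO, no enzyme.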
TRPV1 PAM: HTS Assay for Compounds that Act as Potentiators of the Vanilloid Receptor 1; Transient receptor potential cation channel subfamily V member 1 (Homo sapiens), Q8NER1; TRPV1-expressing cells, Fluo-8 calcium influx, capsaicin EC20 potentiation; host cell line not named in the record; control for the full effect not named in the record; 0.02% of 320,000 active; AID 540277, 2011; potentiation, % at 8.33 µM; active means potentiation above 80%; inconclusive means 30% to 80%; inactive means below 30%; further: 0% is about no effect
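Cells expressing TRPV1 were dye-loaded with Fluo-8 and read kinetically: 10 s baseline, 3 min after compound (agonist portion), then 2 min after EC20 capsaicin (allosteric enhancer portion). Calcium-bound dye fluorescence at 480/520 nm.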
gsp ag: qHTS for Agonist of gsp, the Etiologic Mutation Responsible for Fibrous Dysplasia/McCune-Albright Syndrome: qHTS; gsp mutant cells, cAMP HTRF, 30 min; control for the full effect not named in the record; Potency, µM (series often up to 76.9 µM), for inactives: top-dose activation (cAMP increase), most hits filed as activators; 0.13% of 340,000 active; AID 624287, 2012; active = well fitted activation curve with a large enough effect; inconclusive = small, poorly fitted or top-dose-only effect, or another doubt; inactive = no such curve, though single readings can be large or run the other way; cell line not stated here;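 further: phosphodiesterase inhibitor Ro 20-1724 added with compounds to block cAMP breakdown; potency means the concentration at half of the fitted maximal effect; nearly all actives have a fitted effect of over 60% in size; about a fifth of the inactives were tested at one dose only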
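Cells in DMEM/10% FBS with G418 were pretreated with compounds in DMSO plus […] (300 uM stock) for 30 min at 37C. cAMP was measured by HTRF (cAMP-d2 plus anti-cAMP antibody-K) after 30 min at room temperature.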
D2 potentiator: Beta-Arrestin HTS for Positive Allosteric Modulators of the Human D2 Dopamine Receptor: Potentiators; D(2) dopamine receptor (Homo sapiens), P14416; DiscoveRx D2 beta-arrestin cells, luminescence, 90 min; 100% = 57 uM dopamine signal; potentiation, % (no concentration beside the values); 0.23% of 360,000 active; active = potentiation of 50% or more; inconclusive = 30% to 50%; inactive = 30% or less;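 further: compound concentration not given in the record; tested on top of an EC20 dose of dopamine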
Target sequence (P14416 whole entry, looked up): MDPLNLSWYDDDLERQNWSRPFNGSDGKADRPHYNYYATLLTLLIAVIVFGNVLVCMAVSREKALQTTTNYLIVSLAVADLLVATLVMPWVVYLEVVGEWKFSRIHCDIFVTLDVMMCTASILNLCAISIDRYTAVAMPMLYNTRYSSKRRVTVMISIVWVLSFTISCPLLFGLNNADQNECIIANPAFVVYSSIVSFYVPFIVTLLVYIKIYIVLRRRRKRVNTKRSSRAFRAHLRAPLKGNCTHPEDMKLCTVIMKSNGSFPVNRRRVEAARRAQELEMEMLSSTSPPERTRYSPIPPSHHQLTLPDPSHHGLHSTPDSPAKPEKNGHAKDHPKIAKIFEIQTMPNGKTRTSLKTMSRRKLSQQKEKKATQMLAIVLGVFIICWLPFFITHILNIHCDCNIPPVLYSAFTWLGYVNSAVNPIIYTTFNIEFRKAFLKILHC
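D2 cells co-treated with compound plus 50 nM dopamine (EC20) for 90 min at 37 deg C to detect potentiation. Beta-arrestin recruitment was read as enzyme-fragment luminescence after 1 h at ambient temperature. Full response was set by 57 uM dopamine.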
Menin MLL FP FL: qHTS Assay for Inhibitors Targeting the Menin-MLL Interaction in MLL Related Leukemias: Competition With Fluorescein Labeled MLL-derived Peptide. FP activity change, % at 61.4 µM. 290,000 tested, under 10 active. Fluorescence polarization, fluorescein-MLL peptide displacement from menin. AID 1766, 2009; inconclusive = falling polarisation curve, or a change in total fluorescence; inactive = total fluorescence flat and polarisation flat or rising; no compound was filed as active; the % refers to the polarisation; negative = inhibition;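 further: % of control where 0% means no effect; inhibitors lower the polarisation; unlabelled MLL peptide was the positive control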
gsp antag: qHTS for Antagonists of gsp, the Etiologic Mutation Responsible for Fibrous Dysplasia/McCune-Albright Syndrome: qHTS; Potency, µM (series often up to 76.9 µM), inactives show at the highest dose activity change, negative = inhibition, most hits filed as inhibitors; 0.4% of 340,000 active; gsp-mutant cells, cAMP HTRF, 30 min; control for the full effect not named in the record; active = falling curve of any shape with a large fitted effect; inconclusive = falling curve, mostly with a smaller effect; inactive = flat or rising curve; cell line not stated here;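 further: intracellular cAMP measured with PDE inhibitor Ro 20-1724 present during compound exposure; potency means the concentration at half of the fitted maximal effect; on the % scale 0 is the no-effect control and ±100 the full control effect; nearly all actives have a fitted effect of over 65% in size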
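Cells in G418 medium, seeded 16-24 h, 37C; buffer exchange to DPBS + 1 mM CaCl2, 0.5 mM MgCl2, 0.05% BSA; cpds in DMSO + […] (300 uM stock), 30 min 37C; HTRF cAMP detection.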
The depositor's hits bear a star; ? = inconclusive; . = not tested or not shown; & = joins results of further samples; [ ] = remark or other dose.

entry	smiles	Sfp inh	ClpP mod	TRPV1 PAM	gsp ag	D2 potentiator	Menin MLL FP FL	gsp antag
1	CCOC(=O)c1c(C)[nH]c(C(=O)OCc2ccccc2F)c1C	-9%	.	19	-28%	2	6.2	7%
2	COc1ccc(CCNC(=O)C(C)OC(=O)c2cccs2)cc1OC (stereo not given)	16%	.	-3	?	-1	0.9	10%
3	O=C1CC(=Nc2ccccc2)NN1c1ccccc1	5%	1.4%	-8	-26%	-1	1.0	50µM*
4	COc1cccc(NC(=O)CN(C)C(=O)CC2Sc3ccccc3NC2=O)c1 (stereo not given)	.	-24%	18	20%	-17	.	4%
5	Nc1cc(=O)[nH]c(SCC(=O)N2CCC(Cc3ccccc3)CC2)n1	.	0.3%	7	-1%	-2	.	-8%
6	O=C(COC(=O)c1cccc(O)c1)Nc1ccc(N2CCOCC2)cc1	.	0.2%	2	?	3	.	0%
7	Cc1cc(Nc2cccc(Cl)c2)n2ncnc2n1	5%	1.8%	10	3%	-2	8.4	7%
8	COC(=O)C1C(=O)C(C(=O)c2ccc([N+](=O)[O-])cc2)C(=O)CC1(C)C (stereo not given)	7%	0.4%	-11	14%	-2	-3.0	-7%
9	O=C(C[n+]1ccc(C(=O)N/N=C/c2ccc(OCc3ccccc3)cc2)cc1)c1ccccc1	?	-0.1%	6	10%	-9	-3.7	3%
10	Clc1ccc(CO/N=C2\CCCc3nonc32)cc1	-3%	-0.2%	27	-16%[15.4 µM]	-8	0.4	17%
11	CC1CCCN(C(c2ccccc2)c2sc3ncnn3c2O)C1 (stereo not given)	9%	-3.5%	10	-38%[inhibitor]	-8	0.1	8%
12	COc1ccccc1NC(=O)c1ccc(NS(=O)(=O)c2c(C)noc2C)cc1	11%	-0.4%	-4	-18%	-8	0.6	-20%
13	O=C(Cn1c(-c2ccco2)nc2ccccc21)N1CCCCC1	?	16µM*	-1	19%	-12	12	16%
14	O=C(NCc1ccccc1)c1ccc(NC(=O)c2ccco2)cc1	7%	-0.5%	18	-17%	4	.	2%
15	O=C(CSCc1ccc(F)cc1)Nc1ccccc1	-10%	0.6%	-15	-6%	-8	3.3	3%
16	Cc1ccc2c(CC(=O)Nc3ccc(N4CCN(C)CC4)cc3C)coc2c1	-10%	-1.7%	-7	-41%[inhibitor]	-7	3.2	13%
17	Cc1ccc2oc(C(=O)N(C)Cc3ccc(C)o3)c(C)c2c1	10µM*	-6.6%	-17	-1%	-11	6.2	-2%
18	O=C(/C=C/c1ccco1)NCC1(c2ccccc2)CCCC1	-29%	0.7%	-10	0%	17	2.3	2%
19	Cc1ccc2[nH]c(=O)c(C(c3nnnn3C3CCCC3)N3CCCc4ccccc43)cc2c1 (stereo not given)	8.9µM*	-8.1%	10	0%	2	-0.3	-12%
20	Cc1ccc(NC(=O)Cc2nnc(SCC(=O)NC3=NCCS3)n2C)cc1	-2%	.	-4	-9%[15.4 µM]	-4	2.2	-15%
21	COc1ccc(S(=O)(=O)n2nc(-c3ccc(Cl)cc3)cc2N)cc1	?	-0.7%	17	28%	-1	0.2	-11%
22	Brc1cccc(C=Nc2cccc3ncccc23)c1	.	0.3%	.	16%	-12	.	4%
23	CCC(NS(=O)(=O)c1cccs1)c1ccc(C)cc1 (stereo not given)	.	-3.2%	3	-20%	-2	.	6%
24	COc1ccc2cc(CN(Cc3ccco3)C(c3nnnn3C3CCCCC3)C(C)C)c(=O)[nH]c2c1 (stereo not given)	?	-1.9%	?	13%	1	6.8	-6%
25	CC(NC(=O)c1cccs1)c1ccccc1 (stereo not given)	.	-2.5%	.	-53%[inhibitor]	-2	.	-7%
26	COc1ccc(C(=O)N2CCN(S(=O)(=O)N3CCOCC3)CC2)cc1OC	17%	2.1%	5	23%	-9	2.2	9%
27	CCNS(=O)(=O)c1ccc(C(=O)Nc2ccccc2)cc1	12%	-1.9%	-4	-1%	-3	3.1	15%
28	Cc1ccsc1C(=O)C1CCCN(Cc2cccn2-c2ccc(Cl)cn2)C1 (stereo not given)	8%	-2.9%	-4	-12%	-22	-2.5	-6%
29	COc1cc(C)nc(N2CCCC(C(=O)NCC(C)C)C2)n1 (stereo not given)	29%	-26%	-10	-2%	-16	1.4	3%
30	Cc1ccc(CS(=O)(=O)CCC(=O)NCc2ccc3c(c2)OCO3)cc1	18%	0.4%	2	16%	-5	0.8	0%
31	O=C(Cn1c(O)c(/C=C2\C=Nc3ccccc32)sc1=O)Nc1ccc2c(c1)OCO2	-1%	-1.1%	11	-60%[inhibitor]	-8	?	1%
32	Oc1ccc(Cl)cc1/C=N/c1nccs1	?	0.3%	-15	-8%	-6	6.0	8%
33	CC(C)CC1C(=O)N(Cc2cn(Cc3ccco3)nn2)CCS(=O)(=O)N1Cc1ccc(-c2ccncc2)cc1 (stereo not given)	.	-1.6%	.	-31%[inhibitor]	-1	.	.
34	CN(Cc1ccccc1)S(=O)(=O)c1ccc2[nH]cc(C(=O)NCC3CCCO3)c(=O)c2c1 (stereo not given)	-12%	?	2	-7%	10	4.5	?
35	O=C(O)CNC(=O)c1ccccc1NC(=O)c1ccco1	10%	1.6%	3	-1%	-14	6.2	3%
36	Cc1cc(C(=O)O)c(=O)[nH]c1C	13%	25µM*	-3	-8%	-23	1.1	8%

Along the list, from the results shown.
gsp antag for nos. 25–36 → -7%, 9%, 15%, -6%, 3%, 0%, 1%, 8%, ., ?, 3%, 8%

The list continues:
entry	smiles	Sfp inh	ClpP mod	TRPV1 PAM	gsp ag	D2 potentiator	Menin MLL FP FL	gsp antag
37	O=C(OCc1cnc(Cl)s1)c1cccc(Cl)c1Cl	-7%	-0.2%	-5	1%	27	-1.4	-11%
38	O=C(Cn1c(-c2ccccc2)c[n+]2ccsc12)c1ccc([N+](=O)[O-])cc1	-13%	0.0%	7	46%	4	0.0	7%
39	CCOc1ccc(NC(=O)c2ccc3snnc3c2)cc1	13%	0.1%&0.6%	-9	-18%	-8	2.7	4%
40	COc1ccc(S(=O)(=O)NCC(c2ccc3c(c2)OCO3)N2CCOCC2)cc1C (stereo not given)	.	1.2%	-9	2%[15.4 µM]	-17	.	1%
41	Cc1nn(C)c(C(=O)N/N=C/c2ccncc2)c1Cl	11%	0.7%	-12	-13%[15.4 µM]	-7	.	-3%
42	CC(=O)Nc1ccc(S(=O)(=O)Nc2nc3ccccc3nc2N2CCCC2)cc1	18%	1.3%	0	-15%	-27	-0.3	-25%
43	COc1cc(OC)cc(C(=O)NCC(=O)OC2CCOC2=O)c1 (stereo not given)	18%	-8.7%	2	21%	-13	0.6	9%
44	Cc1ccc(S(=O)(=O)CCC(=O)Nc2cccc(S(=O)(=O)N3CCCCCC3)c2)cc1	.	-1.3%	0	-17%	0	.	-18%
45	CNC(=O)NCC12CC3CC(CC(C3)C1)C2	10%	0.7%	-2	-27%	9	3.5	-2%
46	CCC1=C(OC(=O)N(CC)CC)N2C(=O)OC(=NCC(=O)OC)[C@]2(Cc2ccccc2)[C@H]2C1=CC[C@H]1C(=O)N(C)C(=O)[C@H]12	6%&0%	1.2%	-8	.	-5	-0.9&0.8	-6%
47	O=C(COC(=O)Cn1cnc2ccccc21)Nc1cc(S(=O)(=O)N2CCOCC2)ccc1Cl	3%	.	-11	21%[15.4 µM]	-3	-0.5	-1%
48	CCCSc1nc2ccsc2c(=O)n1CC	8%	.	-44	?	-1	-2.4	-9%
49	CCOc1ccc(N2CC(C(=O)N3CCN(c4ccccn4)CC3)CC2=O)cc1 (stereo not given)	.	20µM*	-15	-93%[inhibitor]	8	.	4%

Among those listed so far, these contain a halogen:
entry	smiles	Sfp inh	ClpP mod	TRPV1 PAM	gsp ag	D2 potentiator	Menin MLL FP FL	gsp antag
1	CCOC(=O)c1c(C)[nH]c(C(=O)OCc2ccccc2F)c1C	-9%	.	19	-28%	2	6.2	7%
7	Cc1cc(Nc2cccc(Cl)c2)n2ncnc2n1	5%	1.8%	10	3%	-2	8.4	7%
10	Clc1ccc(CO/N=C2\CCCc3nonc32)cc1	-3%	-0.2%	27	-16%[15.4 µM]	-8	0.4	17%
15	O=C(CSCc1ccc(F)cc1)Nc1ccccc1	-10%	0.6%	-15	-6%	-8	3.3	3%
21	COc1ccc(S(=O)(=O)n2nc(-c3ccc(Cl)cc3)cc2N)cc1	?	-0.7%	17	28%	-1	0.2	-11%
22	Brc1cccc(C=Nc2cccc3ncccc23)c1	.	0.3%	.	16%	-12	.	4%
28	Cc1ccsc1C(=O)C1CCCN(Cc2cccn2-c2ccc(Cl)cn2)C1 (stereo not given)	8%	-2.9%	-4	-12%	-22	-2.5	-6%
32	Oc1ccc(Cl)cc1/C=N/c1nccs1	?	0.3%	-15	-8%	-6	6.0	8%
37	O=C(OCc1cnc(Cl)s1)c1cccc(Cl)c1Cl	-7%	-0.2%	-5	1%	27	-1.4	-11%
41	Cc1nn(C)c(C(=O)N/N=C/c2ccncc2)c1Cl	11%	0.7%	-12	-13%[15.4 µM]	-7	.	-3%
47	O=C(COC(=O)Cn1cnc2ccccc21)Nc1cc(S(=O)(=O)N2CCOCC2)ccc1Cl	3%	.	-11	21%[15.4 µM]	-3	-0.5	-1%

Compound activity as filed in PubChem.

The order is random, and some 5.1% of all compounds hit somewhere here.
